D2 agonist = agonists of human D2 dopamine receptor (beta-arrestin). P14416. DiscoveRx PathHunter D2 beta-arrestin, luminescence, 90 min; 100% = 57 uM dopamine signal. activation, % (concentration not given with the values). 360,000 compounds, 0.084% hits; in the data active = activation above about 40%; inconclusive = about 15% to 40%; inactive = below about 15%; further: the text of the record calls up to 30% inactive
Target sequence (P14416 whole entry, looked up): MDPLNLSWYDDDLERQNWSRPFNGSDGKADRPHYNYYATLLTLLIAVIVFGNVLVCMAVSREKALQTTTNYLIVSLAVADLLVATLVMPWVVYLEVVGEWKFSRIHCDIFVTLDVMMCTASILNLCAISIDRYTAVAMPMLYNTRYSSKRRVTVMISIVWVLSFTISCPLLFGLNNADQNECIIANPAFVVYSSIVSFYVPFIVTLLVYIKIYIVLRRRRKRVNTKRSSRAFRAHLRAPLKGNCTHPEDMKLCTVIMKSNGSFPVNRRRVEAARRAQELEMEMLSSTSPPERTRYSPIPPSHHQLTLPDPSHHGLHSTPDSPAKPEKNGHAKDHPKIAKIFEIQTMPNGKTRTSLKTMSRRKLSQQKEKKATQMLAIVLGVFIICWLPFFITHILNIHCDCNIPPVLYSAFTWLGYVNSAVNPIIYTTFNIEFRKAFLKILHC
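Agonist mode: compounds alone added to overnight-plated D2 PathHunter cells for 90 min at 37 C, with 57 uM final dopamine (EC100) defining full response. Beta-arrestin recruitment detected by chemiluminescent reagent, read after 1 h at ambient temperature.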
CtBP-E1A inh = CtBP/E1A binding inhibition; AlphaScreen GST-E1A/His-CtBP binding, 1536-well; hits give low values; control for the full effect not named in the record; 340,000 compounds, 0.49% hits; activity change, % (test concentration not listed); in the data active means activity change below about -65%; inconclusive means about -30% to -65%; inactive means above about -30%; further: on the % scale 0 is the no-effect control and ±100 the full control effect
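GST-E1A and His-tagged CtBP (125 nM each as 5X stock) were preincubated with pin-transferred compound for 2 h at 37 °C in the dark, then glutathione donor and nickel acceptor beads were added for 1 h before AlphaScreen reading.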
Six1-Eya2 blk = blocks human Six1 binding to Eya2; AlphaScreen GST-Six1/His-Eya2 binding, biochemical; hits give low values; control for the full effect not named in the record; activity change, % (test concentration not listed); 360,000 compounds, 0.56% hits; AID 651725; in the data active = activity change below about -65%; inconclusive = about -30% to -65%; inactive = above about -30%; further: on the % scale 0 is the no-effect control and ±100 the full control effect
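AlphaScreen luminescence read after one hour at 37 °C in darkness. Pin-transferred compounds met GST-Six1 and His-Eya2 protein (5X stock 250 nM/500 nM) plus glutathione donor and Ni-chelate acceptor beads (5X, 50 ug/mL).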
Sfp PPTase inh = Sfp phosphopantetheinyl transferase inhibition; 310,000 compounds, 3.5% hits; Potency, µM, without a hit: max response, negative = inhibition, actives largely listed as inhibitors; Q9F4F7; Biochemical Sfp PPTase activity, qHTS; active means well fitted inhibition curve with a large enough effect; inconclusive means small, poorly fitted or top-dose-only effect, or another doubt; inactive means no such curve, though single readings can be large or run the other way;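 further: the enzyme is Sfp with the accession as filed and its product quenches rhodamine fluorescence; potency means the concentration at half of the fitted maximal effect; 0% = enzyme reaction without inhibitor and -100% = no enzyme wells; top concentration of the series not given in the record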
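With Hepes-Na pH 7.6 buffer containing 10 mM MgCl2, Sfp (15 nM) modified BHQ-2-YbbR (12.5 uM) using rhodamine-CoA (5 uM). Two reads 30 minutes apart at 525/598 nm yielded each well's rate.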
D2 potentiator = positive allosteric modulators of human D2 dopamine receptor; potentiation, % (test concentration not listed); P14416; DiscoveRx D2 beta-arrestin cells, luminescence, 90 min; 100% = 57 uM dopamine signal; AID 624464; 360,000 compounds, 0.23% hits; active = potentiation of 50% or more; inconclusive = 30% to 50%; inactive = 30% or less;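 further: compound concentration not given in the record; tested on top of an EC20 dose of dopamine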
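D2 cells co-treated with compound plus 50 nM dopamine (EC20) for 90 min at 37 deg C to detect potentiation. Beta-arrestin recruitment was read as enzyme-fragment luminescence after 1 h at ambient temperature. Full response was set by 57 uM dopamine.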
TRPV1 PAM = human TRPV1 potentiation; TRPV1-expressing cells, Fluo-8 calcium influx, capsaicin EC20 potentiation; host cell line not named in the record; control for the full effect not named in the record; 320,000 compounds, 0.02% hits; potentiation, % at 8.33 µM; Q8NER1; active means potentiation above 80%; inconclusive means 30% to 80%; inactive means below 30%; further: 0% is about no effect
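TRPV1-expressing cells were cultured overnight at 35.5C and loaded with Fluo-8 calcium dye for 40 to 90 min at room temperature. After a 10 s baseline, compound was added and calcium influx was read kinetically for 3 min (ex 480/em 520 nm).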
PINK1 modulator = changes PINK1 expression. 410,000 compounds, 0.2% hits. Potency, µM (doses to about 76.6 µM), inactives show top-dose activation (PINK1 increase), usual class: activators. PINK1 immunofluorescence, high-content cytometry, 24 h; active = well fitted activation curve with a large enough effect; inconclusive = small, poorly fitted or top-dose-only effect; inactive = flat fitted curve, though single readings scatter; cell line not stated here;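 further: potency means the concentration at half of the fitted maximal effect; % of control where 0% means no effect; nearly all actives have a fitted effect of over 65% in size; a mitochondrial uncoupler was the plate control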
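Stable cell line, 250 cells/well, 12 h attachment; compounds pinned at 5 concentrations, 24 h; CCCP control. Fixed with nuclear dye, primary antibodies 12 h at 10 degrees C, secondary plus cell stain; laser-scanning cytometer read.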
The depositor's hits bear a star; ? = inconclusive; nt = no result given; & = joins results of further samples; [ ] = another dose, or the depositor's remark.

compound	D2 agonist	CtBP-E1A inh	Six1-Eya2 blk	Sfp PPTase inh	D2 potentiator	TRPV1 PAM	PINK1 modulator
COc1ccc(F)cc1C(=O)C1CCCN(Cc2ccc3c(c2)OCCO3)C1 (stereo not given)	4.4	nt	-7	-1%	-7	-4	1.0%
CCOc1ccccc1CN1CCN(Cc2csc(C(C)=O)c2)CC1CCO (stereo not given)	-1.7	-5	6	8%	-15	-9	-0.7%
CC(NC(=O)c1ccc([N+](=O)[O-])o1)C12CC3CC(CC(C3)C1)C2 (stereo not given)	9.4	0	-1	-10%	18	-16	-1.3%
Cc1cc(C)n2nc(SC(C)C(=O)NCc3ccco3)nc2n1 (stereo not given)	-0.4	1	-1	9%	-5	5	1.1%
COc1ccc(-c2c(C)sc(NC(=O)c3ccnn3C)c2C#N)cc1	-2.5	0	0	0%	-2	-5	1.9%
Cc1nnc(NC(=O)C(C)Sc2nnc(CCNC(=O)c3ccccc3F)n2C)s1 (stereo not given)	2.6	4	-2	10%	-1	10	-0.3%
Cc1ccccc1OCC(=O)N1CCc2ccccc2C1	-0.1	nt	6	5%	-9	-7	0.5%
COC(=O)c1sc(-c2ccccc2)cc1NC(=O)c1ccc(F)cc1	-0.5	-6	-4	13%	-2	-8	13%
O=C1CCc2cc(S(=O)(=O)Nc3ccccc3F)ccc2N1	-2.3	16	-1	nt	-13	7	0.4%
COCCn1c(=S)[nH]c2ccc(N(C)C)cc2c1=O	-0.1	-5	-9	-76%	8	8	-2.1%
C#CCN1[C@@H]2CCN(C2)c2cc(Br)ccc2S1(=O)=O	-1.2	3	3	nt	-5	nt	3.5%
CCOC(=O)c1c(C)c(C(=O)NC2CCCCC2)c(C)n1CC	4.0	6	1	21%	-2	-9	30%[38.3 µM]

A different layout for some results above.
Order of values – D2 agonist	CtBP-E1A inh	Six1-Eya2 blk	Sfp PPTase inh	D2 potentiator	TRPV1 PAM	PINK1 modulator
- CCOc1ccccc1CN1CCN(Cc2csc(C(C)=O)c2)CC1CCO (stereo not given)
    -1.7	-5	6	8%	-15	-9	-0.7%
- CC(NC(=O)c1ccc([N+](=O)[O-])o1)C12CC3CC(CC(C3)C1)C2 (stereo not given)
    9.4	0	-1	-10%	18	-16	-1.3%
- Cc1cc(C)n2nc(SC(C)C(=O)NCc3ccco3)nc2n1 (stereo not given)
    -0.4	1	-1	9%	-5	5	1.1%
- COc1ccc(-c2c(C)sc(NC(=O)c3ccnn3C)c2C#N)cc1
    -2.5	0	0	0%	-2	-5	1.9%
- Cc1nnc(NC(=O)C(C)Sc2nnc(CCNC(=O)c3ccccc3F)n2C)s1 (stereo not given)
    2.6	4	-2	10%	-1	10	-0.3%
- Cc1ccccc1OCC(=O)N1CCc2ccccc2C1
    -0.1	nt	6	5%	-9	-7	0.5%
- COC(=O)c1sc(-c2ccccc2)cc1NC(=O)c1ccc(F)cc1
    -0.5	-6	-4	13%	-2	-8	13%
- O=C1CCc2cc(S(=O)(=O)Nc3ccccc3F)ccc2N1
    -2.3	16	-1	nt	-13	7	0.4%
- COCCn1c(=S)[nH]c2ccc(N(C)C)cc2c1=O
    -0.1	-5	-9	-76%	8	8	-2.1%

Next records follow.
compound	D2 agonist	CtBP-E1A inh	Six1-Eya2 blk	Sfp PPTase inh	D2 potentiator	TRPV1 PAM	PINK1 modulator
CCc1nc2c(OCC(=O)C(C)(C)C)cccn2c1N(C)C(=O)c1cccs1	-3.6	2	-7	nt	-8	nt	2.1%
O=C(COC(=O)c1ccc(S(=O)(=O)N2CCCC2)cc1)Nc1ccccc1Cl	-2.9	6	4	nt	-22	nt	0.2%
Cc1nc2ccc(S(=O)(=O)NCC(=O)N3CCc4ccccc43)cc2s1	0.0	3	3	26%	6	-5	-0.6%
CCOc1ccc(N(C(=O)c2snc(C(N)=O)c2N)C(C(=O)NC2CCCC2)C(C)C)cc1 (stereo not given)	-2.6	6	-5	6%	-7	-22	5.1%
O=C(Nc1cccc(Cl)c1Cl)C1CC(=O)N(c2ccc(Br)cc2)C1 (stereo not given)	3.7	4	2	-8%	-1	-29	?
Cc1nnc(NC(=O)CCN2C(=O)/C(=C\c3ccccc3)SC2=S)s1	-4.2	-3	-2	-1%	2	9	5.6%
O=C(CNS(=O)(=O)c1ccccc1)N1CCN(c2ccccc2)CC1	-0.9	0	2	21%	-15	?	-2.4%[38.3 µM]
N#Cc1c2n(c(=O)[nH]c1=O)CCCCC2	0.5	-2	10	12%	5	-4	-1.3%
COC(=O)c1sc(NC(=O)COc2ccccc2C)nc1C	-2.3	1	-4	12%	-3	4	10%
Cc1cc(N2CCN(C(=O)Nc3ccccc3C#N)CC2)c2ccccc2n1	-4.6	-3	-3	8%	-4	6	-0.6%
O=S(=O)(c1cccc(C(F)(F)F)c1)N1CCN(c2nnnn2-c2ccccc2)CC1	-2.0	5	1	-9%	1	-7	?
Cc1ccn2cc(-c3cccc(S(=O)(=O)N4CC(C)OC(C)C4)c3)nc2c1 (stereo not given)	5.9	nt	-14	3%	-4	-13	1.4%
O=C(O)CCCCCCCCc1cn(Cc2ccc(C(=O)c3ccccc3)cc2)nn1	0.8	?	-19	4%	3	6	3.9%
O=[N+]([O-])c1cccnc1N1CCC(c2cc(-c3ccc(Cl)cc3Cl)n[nH]2)CC1	-2.0	?	-29	9%	-5	4	24%
O=c1c(-c2ccccc2)c(O)nc(SCCN2CCOCC2)n1-c1ccccc1	0.4	4	2	9%	-15	13	-0.9%
CCOC(=O)c1sc(NC(=O)CCc2ccccc2)nc1C	-2.3	nt	9	6%	1	5	6.5%
CN1CCN(C(=O)CCn2c(=S)[nH]c3ccccc3c2=O)CC1	-2.7	-2	4	nt	-12	nt	0.1%
COc1ccc(CCC(C)NC(=O)CCc2ccccc2)c(OC)c1 (stereo not given)	-2.6	0	42	6%	-9	-5	9.7%
Cc1cc(C)c(-n2c(SCC(=O)N3CCOCC3)n[nH]c2=O)c(C)c1	-10	-9	3	12%	-9	21	2.3%
Cn1c(=NC(=O)c2ccco2)sc2ccccc21	0.0	7	3	22%	5	1	0.6%
CCCNC(=O)C1Cc2cc(S(=O)(=O)N3CCCC3)ccc2N1C(C)=O (stereo not given)	-1.0	5	1	10%	-1	-5	0.3%
O=c1[nH]c2ccccc2[nH]c1=O	3.7	4	3	18%	-4	7	0.9%
COc1cccc2cc(C(=O)CC3(O)C(=O)N(Cc4ccccc4)c4ccccc43)c(=O)oc12 (stereo not given)	-2.2	6	0	9%	-1	14	12%
C#CCCOC(=O)N1C2=NC(C(=O)OC)=C(C(=O)OC)[C@@H]3N(CC=C)c4ccccc4[C@]23C[C@H]1C(=O)OC	-1.4	2	1	8%&1%	-12	-36	1.5%
CCOc1ccc(S(=O)(=O)Nc2cccc(C(=O)NCC(c3ccccc3)N(C)C)c2)cc1 (stereo not given)	0.7	0	-8	nt	-43	-11	-0.7%
O=C(NCC(=O)N1CCN(Cc2c(F)cccc2Cl)CC1)c1cccc(Cl)c1	1.5	-2	-5	nt	-10	-2	1.9%
COc1ccc(CCNC(=O)C(=O)NCC2OCCN2S(=O)(=O)c2ccc(OC)c(C)c2)cc1 (stereo not given)	-2.3	-2	-2	9%	3	?	2.7%
CCOC(=O)c1nn(-c2cccc(OC)c2)c(-c2ccccc2)c1C(=O)c1ccccc1	-2.5	4	-10	4%	-12	nt	-1.7%
O=C(/C=C/Sc1ccccc1)c1ccccc1	-1.6	5	-10	-2%	-21	16	nt
COc1cccc(-c2onc3ccc(C(=O)/C=C/N(C)C)cc23)c1	?	-6	-12	2%	?	25	1.7%
O=S(=O)(c1ccc2nc(COc3ccc(Cl)cc3Cl)[nH]c2c1)N1CCOCC1	1.1	-17	-17	-6%	-11	-18	nt
CCOC(=O)C1=C(c2ccccc2)NC(N)=NC1c1ccc(OCc2ccc(C(=O)OC)cc2)cc1 (stereo not given)	-4.2	-16	-10	79µM*	-17	-19	-1.2%
COc1ccccc1C(=O)NC(=O)COC(=O)c1cc[n+]([O-])cc1	7.0	8	10	nt	-14	9	2.5%
Cc1ccccc1-c1nc(CN2CCC(C(=O)O)CC2)c(C)o1	-0.8	-9	10	8%	-4	-6	2.9%
COc1cc(-c2nnc(COC(=O)c3nn(CC(C)C)c(=O)c4ccccc34)o2)cc(OC)c1OC	3.6	6	1	nt	14	-1	0.0%
CC1(C2CC2)NC(=O)N(CC(=O)Nc2ccc(C(F)(F)F)cc2)C1=O (stereo not given)	1.2	-19	4	nt	-5	-2	5.3%
CC(C)C(c1nnnn1Cc1ccccc1)N1CCN(Cc2ccco2)CC1 (stereo not given)	-5.3	8	-2	-6%	-17	-13	-1.4%
COc1c(C)cc(C(O)c2ncc(-c3ccc(C(F)(F)F)cc3)[nH]2)cc1C (stereo not given)	-2.9	-9	-1	nt	-3	nt	?
COc1ccc(-c2cn(CCC(=O)O)c(-c3ccc(Cl)nc3)n2)cc1	-1.6	6	-1	nt	-15	-22	2.0%
CC(C)=C1C2C=CC1C(C(=O)Nc1cccc(C)c1)C2C(=O)O (stereo not given)	0.4	6	2	15%	-10	22	4.0%[38.3 µM]
